NS1 inh = inhibitors of influenza NS1 protein function; Potency, µM (titrated, usually from 46.1 µM), without a hit: top-dose activity, positive = more growth; S. cerevisiae slowed by influenza A NS1, growth recovery by OD600; AID 2326; 270,000 tested, 0.4% active; active means well fitted rising curve with a large enough effect; inconclusive means small, poorly fitted or top-dose-only effect; inactive means no such curve, though single readings can be large or run the other way; note: nearly all actives have a fitted effect of over 50% in size
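In this qHTS, NS1 from influenza A is expressed in budding yeast, where it slows growth. Cells are switched from glucose to 2% galactose medium (pH 6.0, -URA), treated with compound, and growth recovery is read at OD600.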
MARV entry inh = inhibitors of Marburg virus binding or cell entry; Marburg virus pseudotyped entry inhibition, cell reporter; control for the full effect not named in the record; about a third of the inactives were read at about 46 µM; Potency, µM (titrated, usually from 37.8 µM), for inactives: top-dose activity change, negative = inhibition, hits mostly inhibitors; 300,000 tested, 1.8% active; AID 540276; active = well fitted inhibition curve with a large enough effect; inconclusive = small, poorly fitted or top-dose-only effect, or effect the other way; inactive = flat fitted curve, though single readings scatter; tested in HEK293 cells; about a fifth of its hits are not listed in these tables; note: % is set by controls: 0 for no effect and ±100 for the full control effect; luciferase read-out
Cruzain inh noDet = blocks cruzain activity in detergent-free assay; P25779; 200,000 tested, 2.3% active; Potency, µM, inactives show max response, negative = inhibition, usual class: inhibitors; AID 1476; purified cruzain, Z-FR-AMC fluorescence, no detergent;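 note: plate controls were enzyme without inhibitor for no effect and buffer without enzyme for full effect; nearly all actives have a fitted effect of over 40% in size; top concentration of the series not given in the record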
Target sequence (P25779 123-467 limits assumed): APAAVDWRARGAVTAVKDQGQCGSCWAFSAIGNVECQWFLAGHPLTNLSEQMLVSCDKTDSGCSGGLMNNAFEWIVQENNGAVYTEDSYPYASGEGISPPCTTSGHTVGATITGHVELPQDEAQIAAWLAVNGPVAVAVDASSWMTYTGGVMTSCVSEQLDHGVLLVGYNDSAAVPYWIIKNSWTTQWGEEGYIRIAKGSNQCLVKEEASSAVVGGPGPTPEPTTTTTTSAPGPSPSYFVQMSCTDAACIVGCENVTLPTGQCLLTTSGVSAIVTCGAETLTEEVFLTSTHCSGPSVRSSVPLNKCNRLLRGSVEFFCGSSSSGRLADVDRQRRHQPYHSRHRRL
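Purified cruzain at 1.5 nM, pre-incubated 15 min with compound at room temperature in 100 mM sodium acetate pH 5.5, 5 mM DTT, 0.00005% Triton X-100. Reaction started with 2 uM Z-FR-AMC; AMC fluorescence increase over 60 s gives rate.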
RE007 growth inh = less growth of the S. pombe RE007 Vpr strain. Potency, µM (series often up to 92.2 µM), without a hit: at the top dose activity change, negative = less growth. S. pombe RE007 Vpr strain, BacTiter-Glo ATP luminescence, 24 h; control for the full effect not named in the record. 360,000 tested, 0.21% active; active = well fitted falling curve with a large enough effect; inconclusive = small, poorly fitted or top-dose-only effect; inactive = no such curve, though single readings can be large or run the other way;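 note: % is set by controls: 0 for no effect and ±100 for the full control effect; nearly all actives have a fitted effect of over 50% in size; the assay follows cell death caused by Vpr and the record does not say whether a fall means rescue or toxicity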
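Fission yeast strain RE007, carrying one chromosomally integrated HIV-1 vpr copy, was seeded at OD 0.01 in PMG+AL medium with 23 nL pinned compound. After 24 h at 30 °C and 99% humidity, viability was read by BacTiter-Glo luminescence.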
LASV entry inh = Lassa virus entry inhibition | Lassa virus pseudotype entry inhibition, cell reporter; control for the full effect not named in the record | Potency, µM (titrated, usually from 37.9 µM), inactives show at the highest dose activity change, negative = inhibition, actives largely listed as inhibitors | 300,000 tested, 1.2% active | AID 540256; active means well fitted inhibition curve with a large enough effect; inconclusive means small, poorly fitted or top-dose-only effect, or effect the other way; inactive means flat fitted curve, though single readings scatter; tested in HEK293 cells; note: % is set by controls: 0 for no effect and ±100 for the full control effect; nearly all actives have a fitted effect of over 50% in size; luciferase read-out
SARS PLP yeast = blocks SARS-CoV papain-like protease in a yeast assay; S. cerevisiae expressing SARS-CoV PLpro, growth rescue; control for the full effect not named in the record; 330,000 tested, 0.19% active; AID 485353; Potency, µM (titrated, usually from 32.9 µM), for inactives: at the top dose activity, positive = growth rescue; active means well fitted rising curve with a large enough effect; inconclusive means small, poorly fitted or top-dose-only effect; inactive means no such curve, though single readings can be large or run the other way; note: 0% is about no effect; nearly all actives have a fitted effect of over 55% in size; growth read by luminescence after 48 h
StopGo reporter = lowers the luciferase signal of an FMDV 2A StopGo reporter | Potency, µM (titrated, usually from 57.9 µM), inactives show at the top dose signal change, negative = less light | human cells with a luciferase reporter of 2A StopGo recoding; control for the full effect not named in the record | 410,000 tested, 1.2% active; active = well fitted falling curve with a large enough effect; inconclusive = small, poorly fitted or top-dose-only effect; inactive = no such curve, though single readings can be large or run the other way; tested in HEK293T cells; note: % is set by controls: 0 for no effect and ±100 for the full control effect; nearly all actives have a fitted effect of over 45% in size; luciferase light after 4 h
Cruzain Triton = cruzain (T. cruzi) inhibition with detergent; P25779; purified cruzain, Z-FR-AMC fluorescence, 0.01% Triton; Potency, µM, for inactives: max response, negative = inhibition, actives largely listed as inhibitors; 200,000 tested, 0.43% active; AID 1478;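 note: plate controls were neutral wells for no effect and buffer without enzyme for full effect; nearly all actives have a fitted effect of over 40% in size; top concentration of the series not given in the record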
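In this qHTS format, compounds are incubated with 1.5 nM cruzain for 15 min at room temperature before 2 uM Z-FR-AMC is added. Release of AMC is followed at 360/450 nm, and progress is taken as the 60 s fluorescence difference.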
Numbers without * were called inactive; u = inconclusive; x = not tested or not shown; & = joins results of further samples; [ ] = another dose, or the depositor's remark. Unless noted, calls come from the whole dose curve; as a rule, active = well fitted curve in the direction sought with a large enough effect; inconclusive = small, poorly fitted or top-dose-only effect, or another doubt; inactive = no such curve, though single readings can be large; an effect the other way counts as inactive or inconclusive. Potency is the fitted concentration of half-maximal effect. An unsorted share of the library, and some 4.7% of all compounds hit somewhere here.

item	SMILES	NS1 inh	MARV entry inh	Cruzain inh noDet	RE007 growth inh	LASV entry inh	SARS PLP yeast	StopGo reporter	Cruzain Triton
1	CCn1cc([N+](=O)[O-])c(C(=O)N2N=C(c3ccccc3)CC2c2ccc([N+](=O)[O-])cc2)n1 (stereo unspecified)	u	11%	-21%	-6%	8%	17%	8%	-5.0%
2	CCCCn1c(=S)[nH]c2cc(S(=O)(=O)N3CCCCC3)ccc21	11%	x	2%	x	x	6%	u	-10%
3	COCCN(C(=O)CCl)C(C(=O)NC1CCCCC1)c1ccccc1C (stereo unspecified)	-1%	8.9µM*	2%	-18%	u	-10%	20µM*	-0.6%
4	O=C(Cc1ccc(Cl)c(Cl)c1)Nc1cccc2ncccc12	x	1%	x	1%	15%	-3%	-8%	x
5	CCCC(=O)n1nc(-c2ccco2)nc1NCc1ccccc1Cl	x	u	2%	x	14%[46.1 µM]	x	31%[activator]	-0.4%
6	COc1ccc(NC(=O)/C=C/c2cccc(F)c2)cn1	-16%	u	9%	-21%	-10%	-10%	-22%	-2.9%
7	O=C(Nc1cccc(F)c1)c1ccc2ncsc2c1	-51%	u	x	-5%	-2%[46.1 µM]	-7%	25%	x
8	Cc1onc(-c2c(F)cccc2Cl)c1C(=O)Nc1nnc(C(F)(F)F)s1	9%	x	x	22%	x	-11%	u	x
9	COc1ccc(CCNc2ccc(C(CC(N)=O)NC(=O)Cc3cccc4ccccc34)cc2[N+](=O)[O-])cc1 (stereo unspecified)	2%	x	x	-3%	x	-2%	u	x
10	Oc1csc(Cc2nc(-c3ccccc3F)cs2)n1	x	u	x	-4%	12%[46.1 µM]	1%	28%	x
11	N/C(=N\OS(=O)(=O)c1ccc2ccccc2c1)c1cccnc1	-1%	x	x	-12%	x	1%	8%	x
12	O=C1c2cc3ccccc3c(-c3ccccc3)c2C(=O)N1c1ccccn1	-2%	5%	7%	2%	u	14%	0%	-7.2%
13	c1cncc(-c2nc(-c3cccs3)cs2)c1	-64%	17%	-2%	-20%	u	-3%	14%	-4.5%
14	Cc1cccc(NC(=O)/C(C#N)=C/c2cccc([N+](=O)[O-])c2)n1	-3%	x	x	1%	x	3%	-7%	x
15	Cc1nc2ccccc2nc(=O)c1NNc1ccccc1	-3%	u	-11%	9%&-2%	10%	-3%	12%	-1.4%
16	Cn1c(=O)n(CC(=O)Nc2ccc(F)cc2)c2ccccc21	-21%	13%	-5%	13%	6%	4%	14%	-1.1%

Reprinted from the part before: 2 entries; new compounds follow.
item	SMILES	NS1 inh	MARV entry inh	Cruzain inh noDet	RE007 growth inh	LASV entry inh	SARS PLP yeast	StopGo reporter	Cruzain Triton
15	Cc1nc2ccccc2nc(=O)c1NNc1ccccc1	-3%	u	-11%	9%&-2%	10%	-3%	12%	-1.4%
16	Cn1c(=O)n(CC(=O)Nc2ccc(F)cc2)c2ccccc21	-21%	13%	-5%	13%	6%	4%	14%	-1.1%
17	O=C(COC(=O)c1cc[n+]([O-])cc1)Nc1ccc(Cl)cc1Cl	x	-1%	x	0%	15%	0%	7%	x
18	O=C(c1ccccc1)c1nc2ccccc2[nH]c1=O	0%	6%	-7%	-3%	-1%	-14%	29%	-1.9%
19	CC12CCC3C(CCC4CC(=O)CCC43C)C1CC(=NO)C2=O (stereo unspecified)	x	18%	x	1%	8%	x	u	x
20	CCCN(CCC)CCOc1cc(C)ccc1C(C)C	-14%	-24%	-8%	-3%	u	-25%	-27%	-5.1%
21	CCCCn1c(SCC(=O)N(CC)C2CCS(=O)(=O)C2)nc2cc(S(N)(=O)=O)ccc21 (stereo unspecified)	-2%	5%[46.1 µM]	x	-21%	13%	2%	12%	x
22	Cc1ccc(C2NC(=O)c3ccccc3N2)s1 (stereo unspecified)	-1%	0%	-1%	10%	-21%	-7%	23%	4.2%
23	COc1ccc(NC(C)c2cc(Cl)ccc2O)cc1 (stereo unspecified)	-23%	u	6%	12%	-22%	-3%	-26%	-8.5%
24	Cc1ccc(Cl)cc1NC(=O)CN1CCN(S(=O)(=O)N2CCOCC2)CC1	7%	7%[46.1 µM]	x	10%	14%	11%	-9%	x
25	CC(C)C(=O)NC(=S)Nc1ccccc1C(=O)NC1CCCCC1	16%	28%	-7%	-9%	7%	6%	-12%	-2.4%
26	COc1ccc(-c2cc(C(=O)N3CCN(C(=O)c4ccco4)CC3)[nH]n2)cc1	9%	x	x	-14%	x	2%	-1%	x
27	O=C1N/C(=N/Nc2ccccc2)S/C1=C\c1ccccc1	-158%	u	u	86%	u	-41%	-4%	-17%
28	O=C(CCn1c(=O)oc2ccccc21)NC1=NCCS1	2%	2%	8%	-2%	-10%	u	x	-1.0%
29	COc1ccc(N2CCN(C(=O)CN(c3ccc(Br)cc3)S(C)(=O)=O)CC2)cc1	-3%	-12%	u	u	6%	1%	x	5.7%
30	COc1ccc(CSCCc2n[nH]c(=S)n2-c2ccccc2)cc1C	5%	-21%[46.1 µM]	x	8%	-20%[46.1 µM]	1%	-17%	x
31	CC(C)(C)C(=O)OCc1nc(-c2ccc(Cl)cc2)cs1	-3%	-1%&-1%	x	-13%	u	-3%	45%[activator]	x
32	O=C(Nc1ccc2c(c1)C(=O)OC2)c1ccc(C(F)(F)F)cc1	16%	1%[46.1 µM]	x	1%	4%	0%	1%	x
33	CC(C)NS(=O)(=O)c1ccc(NC(=O)C2CC3C=CC2C3)cc1 (stereo unspecified)	12%	11%[46.1 µM]	-3%	10%	u	0%	-5%	0.8%
34	CN1CCN(C(=O)C2=C[C@H](c3ccc4c(c3)OCO4)C[C@H](OCc3ccc(CO)cc3)O2)CC1	3%	x	x	7%	x	1%	4%	x
35	CN1C[C@@H](CS(=O)(=O)N(C)C)C[C@@H]2c3cccc4c3c(cn4C)C[C@H]21	4%	u	6%	x	x	x	x	-3.7%
36	C=C(C)Cn1c(N)cc(=O)nc1SCC(=O)Nc1cccc(C(F)(F)F)c1	14%	14%	x	-9%	8%	-3%	6%	x
37	COc1ccc2c(c1)CCCC21NC(=O)N(CC(=O)NCc2cccs2)C1=O (stereo unspecified)	x	-20%[46.1 µM]	x	81%	-22%[46.1 µM]	-6%	-3%	x
38	CCN(CCCNC(=O)CC(C(=O)N1CCc2ccccc21)n1ccnc1)c1cccc(C)c1 (stereo unspecified)	-5%	1%&-18%	15%	3%	8%	-4%	u	1.6%
39	Cc1ccc(S(=O)(=O)N(C)C)cc1NC(=O)c1cc(S(=O)(=O)N2CCCCC2)ccc1N1CCOCC1	x	11%	x	-10%	-20%	-1%	-16%	x
40	Cc1nc2cccnc2n1-c1cccc(C(=O)NCCN(C)C)c1	x	x	-1%	x	1%[46.1 µM]	x	-6%	-0.8%
41	CCSc1nc2n(n1)C(c1ccc(Cl)cc1Cl)C(C(=O)Nc1ccccc1C)=C(C)N2 (stereo unspecified)	x	x	-3%	x	3%[46.1 µM]	x	-3%	-0.2%
42	CC(C)(C)N(Cc1ccccc1)C(=O)COC(=O)c1ccc(N2CCCC2=O)cc1	x	25%[46.1 µM]	x	10%	-2%[46.1 µM]	1%	-8%	x
43	NS(=O)(=O)c1cccc(NC(=O)CSc2nc3ccccc3c(=O)n2CCCN2CCOCC2)c1	14%	-13%	5%	5%	u	2%	-7%	-2.3%
44	CCCCOP(=O)(c1ccc(N(C)C)cc1)C(O)c1ccc(OC)cc1 (stereo unspecified)	2%	2%[46.1 µM]	x	4%	18%[46.1 µM]	-1%	1%	x
45	CCN(CC)C(=O)N1c2ccccc2CC(N(CC)CC)c2ccccc21 (stereo unspecified)	1%	u	1%	-4%	-3%	u	-29%	5.6%
46	O=S(=O)(c1ccc(Br)s1)N1CCN(c2ccccn2)CC1	-12%	-11%	-7%	8%	6%	1%	-6%	0.6%
47	NNC(=O)CSCc1ccc(Cl)cc1Cl	-1%	3%[46.1 µM]	x	1%	-4%	-1%	-2%	x
48	CCC1=C(c2ccc(C)cc2)S(=O)(=O)N=C1N1CCC(C(=O)NCCc2cccc(OC)c2)CC1	x	u	u	x	x	x	-16%	-2.7%

A draw from above in order of SMILES length, rising:
item	SMILES	NS1 inh	MARV entry inh	Cruzain inh noDet	RE007 growth inh	LASV entry inh	SARS PLP yeast	StopGo reporter	Cruzain Triton
47	NNC(=O)CSCc1ccc(Cl)cc1Cl	-1%	3%[46.1 µM]	x	1%	-4%	-1%	-2%	x
46	O=S(=O)(c1ccc(Br)s1)N1CCN(c2ccccn2)CC1	-12%	-11%	-7%	8%	6%	1%	-6%	0.6%
43	NS(=O)(=O)c1cccc(NC(=O)CSc2nc3ccccc3c(=O)n2CCCN2CCOCC2)c1	14%	-13%	5%	5%	u	2%	-7%	-2.3%

Grouped by structure: those above containing an aryl thioether with sulfur outside any ring (four)
item	SMILES	NS1 inh	MARV entry inh	Cruzain inh noDet	RE007 growth inh	LASV entry inh	SARS PLP yeast	StopGo reporter	Cruzain Triton
21	CCCCn1c(SCC(=O)N(CC)C2CCS(=O)(=O)C2)nc2cc(S(N)(=O)=O)ccc21 (stereo unspecified)	-2%	5%[46.1 µM]	x	-21%	13%	2%	12%	x
36	C=C(C)Cn1c(N)cc(=O)nc1SCC(=O)Nc1cccc(C(F)(F)F)c1	14%	14%	x	-9%	8%	-3%	6%	x
41	CCSc1nc2n(n1)C(c1ccc(Cl)cc1Cl)C(C(=O)Nc1ccccc1C)=C(C)N2 (stereo unspecified)	x	x	-3%	x	3%[46.1 µM]	x	-3%	-0.2%
43	NS(=O)(=O)c1cccc(NC(=O)CSc2nc3ccccc3c(=O)n2CCCN2CCOCC2)c1	14%	-13%	5%	5%	u	2%	-7%	-2.3%
